Screens as filed in PubChem BioAssay.
p53 mut binder – binders of human mutant p53, primary screen, biochemical, small molecule microarray, anti-GST fluorescence; small molecule microarray binding; 0.4% of 17,000 active; calls only; mutant tumor protein p53 (GST-tagged), Homo sapiens;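 active = compounds whose four printed spots each glow above background more than chance allows, each with a p-value under 7%; compounds were printed on slides so no solution concentration is given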;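 also: about 2 pmol printed per array spot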
c-Myc SMM – binders of human c-Myc, primary screen, biochemical, small molecule microarray, anti-His fluorescence | 1.5% of 17,000 active | calls only | Myc proto-oncogene protein (Homo sapiens), P01106 | His-c-Myc binding;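 active = spot fluorescence over background with P-value below 7% in all four replicate spots, showing protein binding; compounds were printed on slides so no solution concentration is given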;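 also: score is binary with 100 for all four spots passing and 0 otherwise; about 2 pmol printed per array spot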
ID4 SMM – binders of human ID4 protein, primary screen, biochemical, small molecule microarray, single point; DNA-binding protein inhibitor ID-4 (Homo sapiens), P47928; Flag-ID4 binding, fluorescence F/B; calls only; 1.2% of 31,000 active; AID 624137, 2012;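 active = spot signal over background at p below 0.07 in all four prints; compounds were printed on slides so no solution concentration is given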;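 also: a binder raises fluorescence above local background on the spot; about 2 pmol printed per array spot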
Target sequence (P47928 whole entry, looked up): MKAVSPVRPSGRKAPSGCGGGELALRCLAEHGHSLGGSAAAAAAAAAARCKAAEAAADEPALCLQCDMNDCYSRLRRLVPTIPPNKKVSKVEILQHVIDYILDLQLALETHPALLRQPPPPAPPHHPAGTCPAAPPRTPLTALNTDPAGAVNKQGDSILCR
STAT3 binder – STAT3 binders, primary screen, biochemical, small molecule microarray, single point, set 2 | His-STAT3 binding, anti-His fluorescence | calls only | 0.2% of 17,000 active;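 active = compounds whose four printed spots each show fluorescence over background unusually high for their array block, chance value under 7%; compounds were printed on slides so no solution concentration is given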;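 also: about 2 pmol printed per array spot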
Target sequence (P40763 whole entry, looked up): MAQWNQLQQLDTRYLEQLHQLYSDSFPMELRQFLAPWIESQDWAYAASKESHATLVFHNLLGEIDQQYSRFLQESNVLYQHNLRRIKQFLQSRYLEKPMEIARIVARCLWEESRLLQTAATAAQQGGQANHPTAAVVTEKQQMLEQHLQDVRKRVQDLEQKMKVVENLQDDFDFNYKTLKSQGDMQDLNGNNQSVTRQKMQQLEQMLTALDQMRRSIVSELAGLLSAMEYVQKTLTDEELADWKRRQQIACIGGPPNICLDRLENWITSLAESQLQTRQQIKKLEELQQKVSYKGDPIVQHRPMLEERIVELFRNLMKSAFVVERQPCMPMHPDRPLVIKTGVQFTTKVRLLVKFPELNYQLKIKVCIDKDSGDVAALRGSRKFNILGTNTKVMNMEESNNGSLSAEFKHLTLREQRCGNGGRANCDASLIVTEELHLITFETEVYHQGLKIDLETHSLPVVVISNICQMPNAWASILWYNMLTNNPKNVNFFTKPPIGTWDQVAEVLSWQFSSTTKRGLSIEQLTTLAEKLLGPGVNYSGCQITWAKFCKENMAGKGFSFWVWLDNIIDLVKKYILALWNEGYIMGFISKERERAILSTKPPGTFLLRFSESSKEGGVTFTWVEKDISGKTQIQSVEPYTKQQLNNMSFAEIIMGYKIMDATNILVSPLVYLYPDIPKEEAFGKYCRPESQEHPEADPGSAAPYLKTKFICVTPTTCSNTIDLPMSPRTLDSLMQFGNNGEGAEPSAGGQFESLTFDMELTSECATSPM
Calls only; i = inactive; . = no result given. Hits appear at their usual frequency (roughly 3.7% active in at least one column).

mol	p53 mut binder	c-Myc SMM	ID4 SMM	STAT3 binder
C[C@H]1CN([C@@H](C)CO)C(=O)Cc2cc(NC(=O)NC3CCCCC3)ccc2O[C@H]1CN(C)C(=O)Nc1ccc(F)cc1	i	i	i	i
COc1ccc(S(=O)(=O)Nc2ccc3c(c2)C(=O)N([C@@H](C)CO)C[C@H](C)[C@H](CN(C)S(=O)(=O)c2c(C)noc2C)O3)cc1	i	i	i	i
CNC[C@@H]1Oc2c(NC(=O)c3ccncc3)cccc2C(=O)N([C@H](C)CO)C[C@H]1C	i	i	i	i
NC(=O)CNCCC(c1ccccc1)c1ccccc1	i	i	i	i
C#CCNC(=O)C1=C[C@H](c2cn(C(C)=O)c3ccccc23)C[C@H](OCc2ccc(CO)cc2)O1	i	i	i	i
COc1ccc(NC(=O)N(C)C[C@H]2Oc3ccc(NS(=O)(=O)c4ccccc4)cc3C(=O)N([C@@H](C)CO)C[C@@H]2C)cc1	i	i	i	i
C[C@@H]1CCCCO[C@H](CN(C)C(=O)CCC(F)(F)F)[C@H](C)CN([C@@H](C)CO)C(=O)c2cc(NC(=O)c3ccncc3)ccc2O1	i	i	i	i
C[C@@H]1CN([C@H](C)CO)C(=O)Cc2cc(N(C)C)ccc2O[C@@H]1CN(C)S(=O)(=O)c1cn(C)cn1	i	i	i	i
Cc1noc(C)c1NC(=O)N(C)C[C@H]1Oc2ccc(NC(=O)Nc3ccc(F)cc3)cc2C(=O)N([C@H](C)CO)C[C@H]1C	i	i	i	i
COc1ccc(/C=C/C(=O)O[C@@H]2[C@@H](O)[C@H](C)O[C@@H](O[C@H]3[C@@H]4C=CO[C@@H](O[C@H]5O[C@@H](CO)[C@H](O)[C@@H](O)[C@@H]5O)[C@@H]4[C@@]4(CO)O[C@@H]34)[C@@H]2OC(C)=O)cc1	i	i	.	i
COc1ccc(NC(=O)Nc2ccc3c(c2)C(=O)N([C@H](C)CO)C[C@@H](C)[C@H](CN(C)S(=O)(=O)c2ccc(Cl)cc2)O3)cc1	i	i	.	i
CNCCC=C1c2ccccc2C=Cc2ccccc21	i	i	i	i
C[C@H]1CN([C@@H](C)CO)C(=O)c2cccc(NS(C)(=O)=O)c2O[C@@H]1CN(C)Cc1ccncc1	i	i	i	i
COc1ccc([Si](C)(C)[C@@H]2[C@@H](CC(=O)N3CCC[C@H]3CO)O[C@]3(C(=O)N(C)c4c(Br)cc(C)cc43)[C@H]2C)cc1	i	i	i	i
C[C@H](CO)N1C[C@H](C)[C@H](CN(C)Cc2ccc(Cl)c(Cl)c2)Oc2ccc(NC(=O)C3CC3)cc2CC1=O	i	i	i	i
C[C@@H]1CN([C@H](C)CO)C(=O)c2cc(NC(=O)CCC(F)(F)F)ccc2O[C@@H](C)CCCCO[C@@H]1CN(C)C(=O)CCC(F)(F)F	i	i	i	i
C[C@@H]1CN([C@H](C)CO)C(=O)CCCn2cc(nn2)CO[C@H]1CN(C)C(=O)Nc1cccc(Oc2ccccn2)c1	i	i	i	i
CCOc1ccc(-n2c(SCc3nc4ccccc4[nH]3)nc3sc4c(c3c2=O)CCCC4)cc1	i	i	i	i
CC(C)NC(=O)Nc1ccc2c(c1)C(=O)N([C@H](C)CO)C[C@@H](C)[C@@H](CN(C)S(=O)(=O)c1cn(C)cn1)OCCCC[C@H](C)O2	i	i	i	i
COc1ccc(NC(=O)N(C)C[C@@H]2Oc3c(NC(=O)c4cnccn4)cccc3C(=O)N([C@H](C)CO)C[C@@H]2C)cc1	i	i	.	i
O=C(COc1ccc2c(-c3ccccc3)cc(=O)oc2c1)Nc1cc(C(F)(F)F)ccc1Cl	i	i	i	i
C[C@H]1CN([C@@H](C)CO)C(=O)Cc2cc(NC(=O)C3CC3)ccc2O[C@H]1CN(C)Cc1ccc2c(c1)OCO2	i	i	i	i
C[C@H]1CN([C@@H](C)CO)C(=O)Cc2cc(N(C)C)ccc2O[C@H]1CN(C)Cc1ccccc1	i	i	i	i
C[C@@H]1CCCCO[C@@H](CN(C)S(=O)(=O)c2ccc(F)cc2)[C@@H](C)CN([C@H](C)CO)C(=O)c2cc(NC(=O)CCC(F)(F)F)ccc2O1	i	i	.	i
COc1ccccc1NC(=O)C1=C(C)NC2=C(C(=O)CC(c3ccc(OC)c(OC)c3)C2)C1c1ccc(C)o1 (configuration not stated)	i	i	i	i
CC(=O)c1c(O)cc(O)cc1CC(=O)O	i	i	.	i
O=C(CSc1nc(C(F)(F)F)cc(=O)[nH]1)Nc1ccc(F)cc1	i	i	i	i
COc1cc2oc(-c3ccccc3)cc(=O)c2c(OC)c1OC	i	i	i	i
Cc1noc(C)c1NC(=O)N(C)C[C@@H]1OCCCC[C@H](C)Oc2ccc(NC(=O)CCC(F)(F)F)cc2C(=O)N([C@@H](C)CO)C[C@H]1C	i	i	i	i
CCn1c(SCC(=O)O)nnc1-c1ccc(OC)cc1	i	i	i	i

Reprinted from the part before: 2 entries; new compounds follow.
mol	p53 mut binder	c-Myc SMM	ID4 SMM	STAT3 binder
Cc1noc(C)c1NC(=O)N(C)C[C@@H]1OCCCC[C@H](C)Oc2ccc(NC(=O)CCC(F)(F)F)cc2C(=O)N([C@@H](C)CO)C[C@H]1C	i	i	i	i
CCn1c(SCC(=O)O)nnc1-c1ccc(OC)cc1	i	i	i	i
O=c1ccc2cc3ccoc3cc2o1	i	i	.	i
C[C@H]1CN([C@@H](C)CO)C(=O)Cc2cc(NC(=O)Nc3ccc(C(F)(F)F)cc3)ccc2O[C@H]1CN(C)C(=O)NC1CCCCC1	i	i	i	i
Cc1ccc(OCC(=O)OC2CCN(C)CC2)cc1	i	i	i	i
COC1OC2c3cc4c(cc3CCN(C)C2c2ccc3c(c21)OCO3)OCO4 (configuration not stated)	i	i	i	i
C[C@@H]1CCCCO[C@@H](CN(C)S(=O)(=O)c2cn(C)cn2)[C@@H](C)CN([C@@H](C)CO)C(=O)c2cc(NC(=O)Cc3ccccc3)ccc2O1	i	i	i	i
Cc1noc(C)c1NC(=O)Nc1ccc2c(c1)CC(=O)N([C@@H](C)CO)C[C@H](C)[C@@H](CN(C)C(=O)Nc1cccc3ccccc13)O2	i	i	i	i
COC(=O)c1csc(C(=O)c2c[nH]c3ccccc23)n1	i	i	i	i
C[C@@H]1CN([C@@H](C)CO)C(=O)c2cc(NS(C)(=O)=O)ccc2O[C@@H](C)CCCCO[C@@H]1CN(C)C(=O)c1ccncc1	i	i	i	i
C[C@@H]1CN([C@@H](C)CO)C(=O)c2cccc(NC(=O)c3cnccn3)c2O[C@H]1CN(C)CC1CC1	i	i	i	i
CCN(CC(=O)Nc1cccc(SC)c1)S(=O)(=O)c1ccc(C)cc1	i	i	i	i
C[C@H](CO)N1C[C@H](C)[C@H](CN(C)C(=O)Nc2cccc3ccccc23)Oc2ncc(-c3cc4ccccc4o3)cc2C1=O	i	i	i	i
O=C1O[C@H](c2ccccc2)[C@H](c2ccccc2)N2[C@H]1[C@@H](C(=O)N1CCCCCCC1)[C@]1(C(=O)Nc3ccc(C#CC4(O)CCCCCC4)cc31)[C@H]2c1ccc(O)cc1	i	i	.	i
C[C@@H]1CN([C@H](C)CO)C(=O)c2cccc(NC(=O)c3ccncc3)c2O[C@@H]1CN(C)Cc1ccc(Cl)c(Cl)c1	i	i	i	i
NCCCCCCNS(=O)(=O)c1ccc2c(Cl)cccc2c1	i	i	i	i
O=C(CSc1n[nH]c(-c2ccccc2Cl)n1)Nc1ccccc1F	i	i	i	i
Cc1nn(C)c(C)c1CN(C)C(=O)c1cc2nc(-c3ccc(Cl)cc3)cc(C(F)(F)F)n2n1	i	i	i	i
COc1ccc(S(=O)(=O)N(C)C[C@@H]2Oc3ccc(NC(=O)Cc4cn(C)c5ccccc45)cc3C(=O)N([C@H](C)CO)C[C@@H]2C)cc1	i	i	i	i
Cn1nnc(NC(=O)COc2ccc(Cl)cc2Cl)n1	i	i	i	i
C[C@H]1CN([C@@H](C)CO)C(=O)c2cc(NC(=O)Cn3cnnn3)ccc2O[C@@H]1CN(C)Cc1ccc(Cl)c(Cl)c1	i	i	i	i
CCO[C@@H]1OC(C(=O)N2CCN(Cc3ccc4c(c3)OCO4)CC2)=C[C@H](c2ccc(Br)cc2)[C@H]1CCCO	i	i	i	i
OCCSc1nnc(-c2ccccc2O)n1-c1ccccc1	i	i	i	i
CCOc1cc(C)c(C(C)C)cc1S(=O)(=O)NC1CC(C)(C)NC(C)(C)C1	i	i	i	i
COC(=O)C1=CO[C@@H](O[C@@H]2O[C@H](CO)[C@@H](O)[C@H](O)[C@H]2O)[C@@H]2[C@@H](C)[C@@H](O)[C@@H](OC(=O)/C=C/c3ccc(O)c(O)c3)[C@H]12	i	i	.	i
C[C@@H]1CN([C@@H](C)CO)C(=O)c2cccc(NS(=O)(=O)c3cn(C)cn3)c2O[C@@H]1CN(C)Cc1ccc2c(c1)OCO2	i	i	i	i
Cc1noc(C)c1S(=O)(=O)Nc1ccc2c(c1)CC(=O)N([C@H](C)CO)C[C@H](C)[C@@H](CN(C)C(=O)Nc1ccc(C(F)(F)F)cc1)O2	i	i	i	i
CC(=O)O[C@@H]1CC(=O)OC(C)(C)C2CC(=O)[C@]3(C)C(CC[C@@]4(C)[C@H](c5ccoc5)OC(=O)[C@H]5O[C@]543)[C@]21C (some centres not stated)	i	i	i	i
C[C@@H]1CN([C@@H](C)CO)C(=O)c2cc(NC(=O)Cc3ccccc3)ccc2O[C@@H](C)CCCCO[C@@H]1CN(C)C(=O)Nc1ccc2c(c1)OCO2	i	i	.	i
Cc1noc(C)c1S(=O)(=O)N(C)C[C@@H]1Oc2ccc(NC(=O)CCN3CCOCC3)cc2CC(=O)N([C@@H](C)CO)C[C@@H]1C	i	i	i	i
Cc1noc(C)c1NC(=O)N(C)C[C@@H]1Oc2c(NS(=O)(=O)c3cn(C)cn3)cccc2C(=O)N([C@H](C)CO)C[C@@H]1C	i	i	i	i
C=C[C@@]12COC(=O)C(=C)[C@@H]1[C@@H](O)[C@H](C(=C)C(=O)OC)[C@@H](O)C2	i	i	i	i

The list goes on.
mol	p53 mut binder	c-Myc SMM	ID4 SMM	STAT3 binder
C=CC[C@H](OC(=O)Nc1ccc(SC)cc1)c1ccc(OCCO)cc1	i	i	i	i
C[C@@H]1CCCCO[C@@H](CN(C)C(=O)CCCN(C)C)[C@H](C)CN([C@@H](C)CO)C(=O)c2cc(N(C)C)ccc2O1	i	i	i	i
C[C@@H]1CCCCO[C@H](CN(C)C(=O)Cc2ccccc2)[C@H](C)CN([C@@H](C)CO)C(=O)c2cc(NS(C)(=O)=O)ccc2O1	i	i	i	i
COc1cc2nc(CCN3C(=O)c4ccccc4C3=O)oc(=O)c2cc1OC	i	i	i	i
C[C@@H]1CN([C@@H](C)CO)C(=O)c2cccc(NS(=O)(=O)c3cn(C)cn3)c2O[C@H]1CN(C)Cc1ccccc1	i	i	i	i
C[C@@H]1CN([C@H](C)CO)C(=O)Cc2cc(NC(=O)Cc3ccccc3)ccc2O[C@@H]1CN(C)C(=O)Nc1ccccc1	i	i	i	i
C[C@H](CO)N1C[C@H](C)[C@H](CN(C)C(=O)NC2CCCCC2)Oc2ccc(NC(=O)Nc3ccc(F)cc3)cc2C1=O	i	i	i	i
C[C@@H]1CCCCO[C@H](CN(C)C)[C@H](C)CN([C@@H](C)CO)C(=O)c2cc(NC(=O)c3ccccc3)ccc2O1	i	i	i	i
O=C1CC(C(=O)Nc2cccc(C(=O)O)c2)C(c2ccccc2)O1 (configuration not stated)	i	i	i	i
C[C@@H]1CN([C@@H](C)CO)C(=O)c2cccc(NC(=O)c3ccc(-c4nccs4)cc3)c2O[C@H]1CN(C)S(=O)(=O)c1cccs1	i	i	i	i
Clc1ccc(COc2ccccc2CNc2ncn[nH]2)c(Cl)c1	i	i	i	i
C[C@@H]1CN([C@H](C)CO)C(=O)Cc2cc(NC(=O)NC3CCCCC3)ccc2O[C@@H]1CN(C)S(=O)(=O)c1cn(C)cn1	i	i	i	i
COC(=O)c1cc(O)cc(OC)c1Oc1cc(C)cc(O)c1C(=O)O	i	i	.	i
C[C@H](CO)N1C[C@H](C)[C@@H](CN(C)Cc2ccc(Cl)c(Cl)c2)Oc2ccc(NC(=O)Cc3cn(C)c4ccccc34)cc2C1=O	i	i	.	i
C[C@H](CO)N1C[C@H](C)[C@H](CN(C)S(=O)(=O)c2ccc(F)cc2)Oc2ccc(NC(=O)C3CC3)cc2CC1=O	i	i	.	i
CC1CCc2c(sc3ncnc(NCc4ccco4)c23)C1 (configuration not stated)	i	i	i	i

Full records as entered above. Screens in order: p53 mut binder | c-Myc SMM | ID4 SMM | STAT3 binder
C[C@@H]1CN([C@H](C)CO)C(=O)Cc2cc(NC(=O)Cc3ccccc3)ccc2O[C@@H]1CN(C)C(=O)Nc1ccccc1 across the screens: i | i | i | i
C[C@H](CO)N1C[C@H](C)[C@H](CN(C)S(=O)(=O)c2ccc(F)cc2)Oc2ccc(NC(=O)C3CC3)cc2CC1=O across the screens: i | i | . | i
